# AF4-AF9 inh = inhibitors of AF4 peptide binding to AF9, primary screen, biochemical, AlphaScreen, biotin-AF4 peptide, FLAG-AF9, single point. Protein AF-9 (Homo sapiens), P42568. inhibition, % at 10 µM. hit rate 0.47% among 350,000;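 active = every replicate reaching a set inhibition limit, whatever the replicate mean, cut at about 25% in these data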;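 also: 0% = plate neutral control median and 100% = total signal loss; the record names both 10 and 1 µM as test concentration; the first replicate is given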
# Target sequence (P42568 whole entry, looked up): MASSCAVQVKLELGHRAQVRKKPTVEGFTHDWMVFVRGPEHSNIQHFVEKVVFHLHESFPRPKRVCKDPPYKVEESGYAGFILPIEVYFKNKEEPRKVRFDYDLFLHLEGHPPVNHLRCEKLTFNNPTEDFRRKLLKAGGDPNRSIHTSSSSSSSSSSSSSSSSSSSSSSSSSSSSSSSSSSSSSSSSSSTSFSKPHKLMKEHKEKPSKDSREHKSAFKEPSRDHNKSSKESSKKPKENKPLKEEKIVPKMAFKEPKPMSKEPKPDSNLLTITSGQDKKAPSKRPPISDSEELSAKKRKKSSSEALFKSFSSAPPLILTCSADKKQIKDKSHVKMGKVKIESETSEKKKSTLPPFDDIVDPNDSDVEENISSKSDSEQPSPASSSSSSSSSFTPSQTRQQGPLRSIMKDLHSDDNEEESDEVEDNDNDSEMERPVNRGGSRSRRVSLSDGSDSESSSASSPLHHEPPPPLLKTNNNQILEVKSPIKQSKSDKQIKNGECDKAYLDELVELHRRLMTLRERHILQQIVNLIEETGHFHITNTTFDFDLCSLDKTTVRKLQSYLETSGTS
# rRNA inh HTS = reduced GFP signal of wild-type E. coli, primary screen, bacterial rRNA inhibitor project, GFP/RFP fluorescence, OD600, single point; hit rate 1.6% among 350,000; AID 720706, 2013; GFP signal change (wild-type ribosome), % (concentration not given with the values); E. coli WT GFP vs humanized-ribosome RFP mutants, 24 h; active compounds read low; DMSO median 0, no signal -100;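 active = significant combined selectivity score with lowered wild-type GFP, culture density cut under 30%, mutant RFP and density less affected; inactive = any of these conditions unmet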; also: one replicate is shown; some compounds called inactive have numbers as strong as hits
# FGF22 binding = binders of human FGF22 protein, primary screen, FGF22 synaptogenesis inhibitor project, biophysical, thermal shift, single point. Fibroblast growth factor 22 (Homo sapiens), Q9HCT0. calls only at 9.99 µM. recombinant FGF22 thermal shift, SYPRO orange fluorescence; percent of sucrose octasulfate shift, DMSO zero. hit rate 1.5% among 340,000;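 active = melting point raised past a set limit in the mean and every replicate; three in four hits are not shown here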
# Target sequence (Q9HCT0 whole entry, looked up): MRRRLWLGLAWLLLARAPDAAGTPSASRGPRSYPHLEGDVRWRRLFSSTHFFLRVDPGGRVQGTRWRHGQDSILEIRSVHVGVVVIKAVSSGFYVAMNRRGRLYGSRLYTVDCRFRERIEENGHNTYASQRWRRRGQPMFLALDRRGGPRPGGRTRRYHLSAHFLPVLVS
# rRNA inh HTS OD600 = also measured in rRNA inh HTS; calls as there; OD600 change, %; measured here: OD600 growth;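 optical density of the mix in the first replicate; 0 = DMSO median and -100 = no signal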
# rRNA inh HTS RFP = second read-out of rRNA inh HTS, no call of its own (marks repeat the call); RFP signal change, %; measured here: RFP humanized mutant strains;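 first replicate; 0 = DMSO median and -100 = no signal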
# Numbers without * were called inactive; i = inactive; . = not tested or not shown; & = joins results of further samples.
# The line under a structure holds: AF4-AF9 inh, rRNA inh HTS, rRNA inh HTS OD600, rRNA inh HTS RFP, FGF22 binding
OC[C@H]1[C@@H](c2ccc(C3=CCCC3)cc2)[C@@H]2CN(Cc3ccncc3)CCCCN12
 : 1.4, 1.1, -5.9, -2.0, i
C[C@@H]1CN([C@H](C)CO)C(=O)CCCn2nncc2CO[C@H]1CN(C)S(=O)(=O)c1ccc2ccccc2c1
 : 1.9&-2.1&-1.3, -1.3&-2.4, -5.0&-4.8, -0.8&4.8, i
Cc1cc(C)c2c(ccc3ccccc32)n1
 : -2.1, -17.3, -30.1, -5.5, i
Cc1ccc(S(=O)(=O)Nc2ccc3c(c2)C(=O)N([C@@H](C)CO)C[C@@H](C)[C@@H](CN(C)CC2CCCCC2)OCCCC[C@@H](C)O3)cc1
 : 21.8, -15.7, -33.5, 13.5, i
CCCN(C)C[C@@H]1OCCCC[C@@H](C)Oc2ccc(NS(=O)(=O)c3cccs3)cc2C(=O)N([C@H](C)CO)C[C@@H]1C
 : -3.3, 0.1, -1.5, -1.7, i
CCN(CC)CCNC(=O)c1nn(-c2ccc(Cl)cc2)c2c1CCc1cc(OC)ccc1-2
 : 22.6, -67.8, -79.8, -22.3, i
COc1ccc2c3c(n(C)c2c1)[C@@H](CO)N(CC1CC1)CC31CN(S(=O)(=O)c2cccs2)C1
 : 10.2, -3.4, -27.8, -1.9, i
O=C(C1CCOCC1)N1CC(=O)N2[C@H](CO)[C@@H](c3ccc(C#Cc4cccc(F)c4)cc3)[C@@H]2C1
 : -1.9, 4.9, -12.9, 3.3, i
O=C(Nc1ccccc1F)N1CCCCN2[C@H](CO)[C@H](c3ccc(C#Cc4cccnc4)cc3)[C@H]2C1
 : 2.0, -9.1, 8.4, 3.5, i
Cc1c(Cl)cccc1NC(=O)CCN1C(=O)NC(C)(C)C1=O
 : -12.3, 2.8, 3.3, -1.1, i
O=C(C[C@@H]1CC[C@@H](NC(=O)c2cccnc2)[C@@H](CO)O1)NCCN1CCCCC1
 : -0.7, 3.8, -5.1, 6.1, i
C[C@H](CO)N1C[C@H](C)[C@@H](CN(C)Cc2cccnc2)Oc2cc(C3=CCCCC3)ccc2S1(=O)=O
 : 11.6, -22.1, -37.8, 26.5, i
COCC(=O)Nc1ccc2c(c1)OC[C@H](C)N(C(=O)COC)C[C@@H](C)[C@H](OC)CN(C)C2=O
 : 1.1, 0.5, 0.3, 0.4, i
COc1cccc(-c2cc3nc(C)c(C)c(N4CCN(C(=O)c5ccoc5)CC4)n3n2)c1
 : 7.3, 19.6, 15.7, 0.3, i
O=C(C[C@@H]1CC[C@H](NC(=O)C2CCC2)[C@H](CO)O1)NC1CCCCC1
 : -1.4, 2.7, 2.0, -0.6, i
O=C(C[C@@H]1C[C@@H]2c3cc(NC(=O)NC4CCCC4)ccc3O[C@@H]2[C@H](CO)O1)NC1CCCC1
 : -2.5, 0.4, -1.9, 0.6, i
Cc1ccccc1CN1C(=O)CSCC1(C)C(=O)NC(C)C (stereo not given)
 : -2.1, 7.4, 5.1, 0.9, i
CCNC(=O)C[C@@H]1CC[C@@H]2[C@H](COC[C@@H](O)CN2C(=O)Nc2ccc(C(F)(F)F)cc2)O1
 : -3.0, -20.9, -28.8, -0.5, i
C[C@@H]1CN([C@@H](C)CO)C(=O)c2cc(NC(=O)C3CCCCC3)ccc2O[C@@H](C)CCCCO[C@@H]1CN(C)C(=O)NC1CCCCC1
 : 2.5, -4.3, -4.4, 0.5, i
C[C@H]1CCCCO[C@@H](CN(C)C(=O)CCCN(C)C)[C@@H](C)CN([C@@H](C)CO)C(=O)c2cc(NC(=O)Nc3ccc(F)cc3)ccc2O1
 : 9.2, 1.4, 4.6, 1.0, i
C[C@@H]1CCCCO[C@@H](CN(C)C(=O)C2CCCCC2)[C@@H](C)CN([C@@H](C)CO)C(=O)c2cc(NS(=O)(=O)c3ccccc3)ccc2O1
 : 1.4, 0.8, 2.7, 0.5, i
C[C@H](CO)N1C[C@H](C)[C@H](CN(C)C(=O)Nc2ccnc(N3CCOCC3)c2)OCc2cnnn2CCCC1=O
 : -1.6&-0.1, -1.0&0.0, 0.8&4.2, 0.2&0.1, i
O=C(Cc1ccc(NC(=O)C2CCN(C(=O)C3CCC3)CC2)cc1)Nc1cccc(C(=O)N2CCCC2)c1
 : 2.4, 1.0, -3.1, 0.4, i
COc1cccc(NC(=O)N(C)C[C@@H]2Oc3cc(C#Cc4ccc(F)cc4)ccc3S(=O)(=O)N([C@H](C)CO)C[C@H]2C)c1
 : -14.3, 2.1, 8.1, 0.4, i
CO[C@@H]1CN(C)C(=O)c2cc(NC(=O)C3CCOCC3)ccc2OC[C@H](C)N(CC2CC2)C[C@H]1C
 : -4.7, 2.2, 12.1, 0.4, i
Cc1noc(C)c1NC(=O)N(C)C[C@H]1Oc2ccc(NC(=O)CCN3CCOCC3)cc2CC(=O)N([C@@H](C)CO)C[C@H]1C
 : -8.6, 4.1, 3.8, -2.3, i
CCCNC(=O)N(C)C[C@@H]1Oc2cc(-c3ccncc3)ccc2S(=O)(=O)N([C@@H](C)CO)C[C@H]1C
 : -3.9, 5.6, 1.4, -2.6, i
CC(=O)N(C)C[C@H]1Oc2ncc(C#Cc3ccccc3)cc2C(=O)N([C@@H](C)CO)C[C@@H]1C
 : -1.3, 1.4, 3.8, -2.8, i
CC(C)C#Cc1ccc2c(c1)O[C@@H](CN(C)CC1CCOCC1)[C@@H](C)CN([C@H](C)CO)S2(=O)=O
 : 2.7, -1.5, -7.6, -1.4, i
C[C@H](CO)N1C[C@H](C)[C@H](CN(C)C(=O)Nc2ccccc2)Oc2ccc(N(C)C)cc2C1=O
 : 0.2, -2.2, -3.2, -2.8, i
C[C@H]1CN([C@@H](C)CO)C(=O)Cc2cc(NS(=O)(=O)c3ccc(F)cc3)ccc2O[C@@H]1CN(C)C
 : -6.9, -3.2, 2.2, -1.1, i
CC(C)NC(=O)N(C)C[C@H]1OCCCC[C@@H](C)Oc2ccc(NS(=O)(=O)c3cn(C)cn3)cc2C(=O)N([C@H](C)CO)C[C@H]1C
 : 0.0, 5.4, 9.3, -0.4, i
O=P(CCc1ccccc1)(c1ccccc1)c1ccccc1
 : -0.6, -4.5, -23.8, 0.5, i
O=C(Nc1ccc2c(c1)[C@@H]1C[C@@H](CC(=O)N3CCOCC3)O[C@@H](CO)[C@@H]1O2)NC1CCCCC1
 : -8.2, -3.4, -6.7, -2.2, i
COCC(=O)Nc1ccc2c(c1)[C@H]1C[C@@H](CC(=O)NCC3CC3)O[C@@H](CO)[C@H]1O2
 : -2.0, 5.6, 5.5, -1.0, i
CCCNC(=O)N1CC(=O)N2[C@H](CO)[C@H](c3ccc(C#Cc4cccc(OC)c4)cc3)[C@H]2C1
 : -1.5, -4.0, -17.9, 7.8, i
N#C[C@H]1[C@@H](c2ccccc2-c2ccccc2F)[C@H](CO)N1C(=O)c1cccc(F)c1
 : -1.4, -3.3, -17.5, -1.4, i
C[C@H](CO)N1C[C@H](C)[C@H](CN(C)C(=O)Nc2cccc3ccccc23)Oc2ncc(C#CCC3CCCC3)cc2C1=O
 : 1.0, 3.2, 13.4, 2.8, i
CN(C)c1ccc2c(c1)[C@H]1C[C@H](CC(=O)N3CCc4ccccc4C3)O[C@@H](CO)[C@H]1O2
 : 5.3, 0.9, 13.1, 2.6, i
CCNC(=O)OC[C@H]1O[C@H](C#Cc2ccc(C(C)(C)C)cc2)C=C[C@H]1OC(C)=O
 : -2.6, 15.5, -13.1, 7.2, .
C[C@@H]1CN([C@@H](C)CO)C(=O)c2cc(NS(=O)(=O)c3ccc(Cl)cc3)ccc2O[C@@H](C)CCCCO[C@H]1CN(C)C(=O)Cc1ccccc1
 : -9.2, -2.6, -2.8, 0.0, i
N#C/C(=C/C1=C(N2CCOCC2)C(=C/c2ccccc2)/CC1)C(=O)Nc1ccccc1F
 : 6.6, 0.3, 10.3, 64.3, i
C[C@H](CO)N1C[C@H](C)[C@@H](CN(C)Cc2ccccc2)Oc2ccc(NC(=O)Nc3ccc4c(c3)OCO4)cc2C1=O
 : 8.6, 4.1, 1.1, 1.0, i
C[C@H]1CN([C@@H](C)CO)C(=O)Cc2cc(NS(=O)(=O)c3cn(C)cn3)ccc2O[C@H]1CN(C)Cc1ccc(Cl)c(Cl)c1
 : -1.4, -2.6, -9.9, 4.8, i
COc1ccc(S(=O)(=O)N(C)C[C@H]2Oc3ccc(NC(=O)Cn4cnnn4)cc3C(=O)N([C@@H](C)CO)C[C@@H]2C)cc1
 : -3.3, -0.2, -0.3, -1.2, i
CC(=O)Oc1ccccc1Cn1c(C)c(C(=O)NCCC#N)sc1=O
 : -0.5, 8.4, 6.9, -1.0, i
CCS(=O)(=O)Nc1ccc2c(c1)C(=O)N(C)[C@H]1CC[C@H](CC(=O)Nc3ccccc3)O[C@H]1CO2
 : 0.9, -1.1, -4.2, -1.1, i
C[C@H]1CN([C@@H](C)CO)C(=O)Cc2cc(NC(=O)Cn3cnnn3)ccc2O[C@@H]1CN(C)Cc1ccncc1
 : -3.0, 5.6, 11.0, -2.3, i
CO[C@@H]1CN(C)C(=O)c2cc(NC(=O)C3CC3)ccc2OC[C@H](C)N(C(=O)CN2CCOCC2)C[C@H]1C
 : -3.6, 2.2, 6.3, -0.3, i
CC(C)NC(=O)N1[C@H](CO)[C@@H](c2ccccc2)C12CN(C(=O)c1ccccn1)C2
 : -1.6, 0.9, 10.9, -2.4, i
O=C(Nc1cccc(C(F)(F)F)c1)C1Cc2c(-c3ccco3)ccnc2O1 (stereo not given)
 : 0.5, 2.5, 17.8, -0.1, i
CCOC(=O)c1c(C)nsc1NC(=O)C1(C)CCN1C(=O)CC (stereo not given)
 : -0.3, -0.5, -6.0, -2.9, i
C[C@@H]1CCCCO[C@@H](CN(C)S(=O)(=O)c2ccc(Cl)cc2)[C@H](C)CN([C@@H](C)CO)C(=O)c2cc(NC(=O)c3ccncc3)ccc2O1
 : 3.6, -5.2, -6.6, 1.2, i
CCc1nc2ccc(C(=O)N3CCN(C(C)=O)CC3)cn2c1N(CC)C(=O)NCCc1ccccc1
 : -2.4, 12.7, 30.3, 0.7, i
CO[C@H](CN(C)S(=O)(=O)c1cn(C)cn1)[C@H](C)CN(C(=O)Nc1ccc(F)cc1)[C@@H](C)CO
 : -0.3, 0.1, -5.9, -1.6, i
CN1C(=O)c2cc(NS(C)(=O)=O)ccc2OC[C@@H]2O[C@H](CC(=O)O)CC[C@H]21
 : -1.4, 3.3, 1.8, 1.0, i

# Single records, as listed above. Values in the order: AF4-AF9 inh, rRNA inh HTS, rRNA inh HTS OD600, rRNA inh HTS RFP, FGF22 binding
# Profile of CCCNC(=O)N(C)C[C@@H]1Oc2cc(-c3ccncc3)ccc2S(=O)(=O)N([C@@H](C)CO)C[C@H]1C : -3.9, 5.6, 1.4, -2.6, i
# Profile of COc1cccc(-c2cc3nc(C)c(C)c(N4CCN(C(=O)c5ccoc5)CC4)n3n2)c1 : 7.3, 19.6, 15.7, 0.3, i

# Gathered by group, the compounds so far containing an aryl methoxy group.
# The line under a structure holds: AF4-AF9 inh, rRNA inh HTS, rRNA inh HTS OD600, rRNA inh HTS RFP, FGF22 binding
CCN(CC)CCNC(=O)c1nn(-c2ccc(Cl)cc2)c2c1CCc1cc(OC)ccc1-2
 : 22.6, -67.8, -79.8, -22.3, i
COc1ccc2c3c(n(C)c2c1)[C@@H](CO)N(CC1CC1)CC31CN(S(=O)(=O)c2cccs2)C1
 : 10.2, -3.4, -27.8, -1.9, i
COc1cccc(-c2cc3nc(C)c(C)c(N4CCN(C(=O)c5ccoc5)CC4)n3n2)c1
 : 7.3, 19.6, 15.7, 0.3, i
COc1cccc(NC(=O)N(C)C[C@@H]2Oc3cc(C#Cc4ccc(F)cc4)ccc3S(=O)(=O)N([C@H](C)CO)C[C@H]2C)c1
 : -14.3, 2.1, 8.1, 0.4, i
CCCNC(=O)N1CC(=O)N2[C@H](CO)[C@H](c3ccc(C#Cc4cccc(OC)c4)cc3)[C@H]2C1
 : -1.5, -4.0, -17.9, 7.8, i
COc1ccc(S(=O)(=O)N(C)C[C@H]2Oc3ccc(NC(=O)Cn4cnnn4)cc3C(=O)N([C@@H](C)CO)C[C@@H]2C)cc1
 : -3.3, -0.2, -0.3, -1.2, i

# Source: PubChem BioAssay

# An excerpt; rates above refer to the full screens.
